Screening data deposited in PubChem BioAssay by National Center for Advancing Translational Sciences (NCATS).
ClpP mod = qHTS Assay for Activators of ClpP; purified B. subtilis ClpP, FRET peptide cleavage, 20 min; ATP-dependent Clp protease proteolytic subunit (Bacillus subtilis (strain 168)), P80244; AID 651965, 2013; actives 1.9% (n = 340,000); Potency, µM (doses to about 57.5 µM), inactives show at the top dose activity change, negative = active; active = well fitted falling curve with a large enough effect; inconclusive = small, poorly fitted or top-dose-only effect; inactive = no such curve, though single readings can be large or run the other way; also: potency is read from the fitted curve at half-maximal effect; the source files actives as falling curves though it sought activators and does not explain the sign; nearly all actives have a fitted effect of over 65% in size; many hits overshoot -100%
Target sequence (P80244 whole entry, looked up): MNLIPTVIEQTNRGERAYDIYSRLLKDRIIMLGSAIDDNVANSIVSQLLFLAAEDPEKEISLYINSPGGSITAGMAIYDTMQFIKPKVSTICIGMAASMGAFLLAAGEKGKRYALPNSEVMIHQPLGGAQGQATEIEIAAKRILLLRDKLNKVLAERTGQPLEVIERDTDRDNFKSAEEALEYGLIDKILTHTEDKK
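ClpP 10 microg/mL final, pH 8 Tris/KCl buffer with BSA, glycerol, Tween-20; compound pinned in; FRET-FV substrate; RT 20 min; Ex320/Em430; ΔFRET vs ADEP 5.8 microM, DMSO, no enzyme.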
gsp antag = antagonists of gsp mutant (McCune-Albright syndrome). gsp-mutant cells, cAMP HTRF, 30 min; control for the full effect not named in the record. Potency, µM (series often up to 76.9 µM), inactives show at the top dose activity change, negative = inhibition, usual class: inhibitors. actives 0.4% (n = 340,000). AID 624288; active = falling curve of any shape with a large fitted effect; inconclusive = falling curve, mostly with a smaller effect; inactive = flat or rising curve; cell line not stated here;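 also: intracellular cAMP measured with PDE inhibitor Ro 20-1724 present during compound exposure; potency is read from the fitted curve at half-maximal effect; % is scaled to controls: 0 for no effect and ±100 for the full control effect; nearly all actives have a fitted effect of over 65% in size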
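Measurement of cellular cAMP by homogeneous time-resolved fluorescence following a 30 min compound exposure at 37C. The PDE inhibitor […] was present throughout; the assay buffer was DPBS with 0.05% BSA and 0.005% Tween 20.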
Menin-MLL FL inh = menin-MLL binding inhibition, fluorescein peptide | Fluorescence polarization, fluorescein-MLL peptide displacement from menin | FP activity change, % at 61.4 µM | 290,000 tested, under 10 active | AID 1766; inconclusive = falling polarisation curve, or a change in total fluorescence; inactive = total fluorescence flat and polarisation flat or rising; no compound was filed as active; the % refers to the polarisation; negative = inhibition;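 also: % of control where 0% means no effect; inhibitors lower the polarisation; unlabelled MLL peptide was the positive control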
TRPML1 ag = human mucolipin-1 channel agonism. Q9GZU1. actives 0.12% (n = 410,000). AID 624414. activation, % (no concentration beside the values). TRPML1-expressing cells, Ca2+ dye fluorescence, FDSS; host cell line not named in the record; reference of the full effect not given here; in the data active = activation above about 50%; inconclusive = about 30% to 50%; inactive = below about 30%; also: 0% is about no effect; the text of the record puts the active cut at 80%
Target sequence (Q9GZU1 whole entry, looked up): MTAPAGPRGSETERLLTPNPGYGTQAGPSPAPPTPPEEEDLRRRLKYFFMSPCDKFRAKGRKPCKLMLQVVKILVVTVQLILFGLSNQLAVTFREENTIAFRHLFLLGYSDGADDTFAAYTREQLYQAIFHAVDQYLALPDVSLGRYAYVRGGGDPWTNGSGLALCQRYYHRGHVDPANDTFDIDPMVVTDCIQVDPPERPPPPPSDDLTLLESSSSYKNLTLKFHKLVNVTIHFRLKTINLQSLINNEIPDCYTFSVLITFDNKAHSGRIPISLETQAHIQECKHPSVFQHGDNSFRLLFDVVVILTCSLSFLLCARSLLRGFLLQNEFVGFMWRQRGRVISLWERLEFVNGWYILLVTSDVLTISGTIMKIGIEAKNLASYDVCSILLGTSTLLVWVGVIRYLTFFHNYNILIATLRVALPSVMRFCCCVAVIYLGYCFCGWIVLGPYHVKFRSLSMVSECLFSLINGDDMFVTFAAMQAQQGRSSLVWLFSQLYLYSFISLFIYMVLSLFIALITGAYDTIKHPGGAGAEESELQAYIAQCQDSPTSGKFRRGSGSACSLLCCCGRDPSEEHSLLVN
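In this qHTS format, compounds were pin-transferred onto Ca8-dye-loaded TRPML1-DL cells induced with Tet overnight, and intracellular Ca2+ fluorescence was recorded kinetically for 110 s after a 10 s baseline. A subsequent 4uM final 54-4 (EC80) addition followed by a second 110 s read served as the antagonist phase.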
TRPML1 blocker = inhibitors of human TRPML1 channel | actives 0.02% (n = 390,000) | activity change, negative = inhibition, % (test concentration not listed) | AID 624415 | Q9GZU1 | TRPML1-inducible cells, Ca2+ dye fluorescence, FDSS; hits give low values; inhibition of EC80 agonist-evoked calcium signal; in the data active means activity change below about -50%; inconclusive means about -30% to -50%; inactive means above about -30%;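 also: stimulus is agonist 54-4 at its EC80 concentration; % is scaled to controls: 0 for no effect and ±100 for the full control effect; compound concentration not given in the record; the text of the record puts the active cut at -80%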
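Calcium fluorescence in TRPML1-DL cells induced overnight with Tet: a 110 s read after compound pin addition, then a 110 s antagonist read after challenge with 54-4 at 4 uM final (EC80).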
gsp ag = gsp mutant agonism; gsp mutant cells, cAMP HTRF, 30 min; control for the full effect not named in the record; Potency, µM (doses to about 76.9 µM), for inactives: top-dose activation (cAMP increase), hits mostly activators; actives 0.13% (n = 340,000); active = well fitted activation curve with a large enough effect; inconclusive = small, poorly fitted or top-dose-only effect, or another doubt; inactive = no such curve, though single readings can be large or run the other way; cell line not stated here;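 also: phosphodiesterase inhibitor Ro 20-1724 added with compounds to block cAMP breakdown; potency is read from the fitted curve at half-maximal effect; nearly all actives have a fitted effect of over 60% in size; about a fifth of the inactives were tested at one dose only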
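Cells in DMEM/10% FBS with G418 were pretreated with compounds in DMSO plus […] (300 uM stock) for 30 min at 37C. cAMP was measured by HTRF (cAMP-d2 plus anti-cAMP antibody-K) after 30 min at room temperature.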
Starred values were filed as active, the others as inactive; u = inconclusive; x = not tested or not shown; & = joins results of further samples; [ ] = dose if it differs, or a comment. Hits appear at their usual frequency; about 2.1% have a hit in one of these screens.

SMILES	ClpP mod	gsp antag	Menin-MLL FL inh	TRPML1 ag	TRPML1 blocker	gsp ag
Cc1ccc(S(=O)(=O)N(C)C)cc1NC(=O)COC(=O)Cc1ccccc1F	1.7%	-13%	x	-1.2	-8	-7%
COc1ccc(C(=O)N/C(=C/c2cccnc2)C(=O)N2CCOCC2)cc1OC	-9.3%	-27%	0.2	2.3	-13	0%[15.4 µM]
O=c1c(N2CCc3ccccc3C2)csc2ccc(Cl)cc12	u	x	x	-0.6	17	x
Nc1nc(NCc2ccco2)nc(NCCO)c1[N+](=O)[O-]	-1.3%	-15%	1.6	1.5	-3	6%
O=C1CCCN1CCC1CCN(C2CC(=O)N(c3ccc(Cl)cc3)C2=O)CC1 (configuration not stated)	1.5%	3%	0.1	0.5	6	-1%
O=C(Nc1ccc(Br)cc1)C(Cc1ccccc1)NS(=O)(=O)c1cccc2nsnc12 (configuration not stated)	1.6%	x	x	0.6	10	x
CNc1nc2[nH]c(=O)c3c(c2s1)OC(N)=C(C#N)C3c1ccccc1 (configuration not stated)	-8.4%	1%	11	1.9	28	-15%
O=C(CSc1n[nH]c(-c2cccnc2)n1)Nc1ccc([N+](=O)[O-])cc1	x	u	9.2	1.0	20	18%[15.4 µM]
O=C(CNCc1ccccn1)Nc1cc(C(F)(F)F)ccc1N1CCOCC1	x	5%	-2.0	-0.8	10	8%[15.4 µM]
O=C(N/N=C/c1[nH]c2ccccc2c1Cl)c1cccc(Br)c1	x	4%	-0.2	-0.9	10	22%
COc1cc(NC(=O)Cn2c(=O)n(-c3ccccc3)c(=O)c3c4c(sc32)CCCC4)cc(OC)c1	1.7%	x	x	-0.3	3	x
Cc1ccc(Nc2cc(C)nc3ncnn23)cc1	-1.6%	7%	-2.5	0.6	12	19%[15.4 µM]
CCCNC(=O)c1ccc(N2CCC3(CC2)CC(c2cccc(Br)c2)=NO3)c(NC(=O)c2c(Cl)cccc2Cl)c1	-0.8%	3%	x	-0.9	-12	-12%
NS(=O)(=O)c1ccc(Nc2nc(-c3ccc(O)cc3)cs2)cc1	-4.9%	u	-1.8	1.4	-13	-35%[inhibitor]
COC(=O)c1ccc2c(c1)N(CC(=O)Nc1cccc(Cl)c1C)C(=O)c1ccccc1S2	-3.5%	x	x	2.6	-1	x
Cc1ccccc1CC(=O)N1CCCC(CCC(=O)N2CCN(c3ccccn3)CC2)C1 (configuration not stated)	3.6%	-8%	-12	-0.8	-1	u
O=[N+]([O-])c1ccc(C2=NCCO2)cc1	1.5%	-11%	2.7	-0.4	-4	3%
CCOC(=O)N1CCC2CC1c1cc(-c3cccc(OC)c3)ccc12 (configuration not stated)	-2.4%	-19%	x	-0.1	8	x
CC1=C(C(=O)N(C)CCC#N)C2(CCCCC2)OC1=O	0.6%	8%	-2.3	-0.5	0	-47%[inhibitor]
O=C(N/N=C/c1cccc([N+](=O)[O-])c1)C1CC(=O)N(c2ccc(F)cc2)C1 (configuration not stated)	-0.7%	-1%	6.3	-0.2	-28	3%
COc1cc(CCC(N)c2cccc(O)c2)cc(OC)c1OC (configuration not stated)	222%	6%	x	0.5	-12	0%
COc1ccc(/C=C(/NC(=O)c2ccccc2)C(=O)N/N=C/c2sccc2C)cc1	x	1%	5.9	0.6	17	0%[15.4 µM]
COc1ccccc1CN1CCN(C(=O)c2ccncc2)CC1	0.4%	6%	1.9	-0.3	20	20%
CCOC(=O)c1c(C)[nH]c(C(=O)COC(=O)c2cc(C)oc2C)c1C	13%	-1%	x	1.3	-8	5%
CCOC(=O)Nc1csnn1	x	14%	-7.3	0.2	-9	8%
Cc1ccccc1S(=O)(=O)N(C)C[C@@H]1OCc2cnnn2CCCC(=O)N([C@H](C)CO)C[C@H]1C	-1.5%	x	x	0.6	-15	-136%[inhibitor]
Cn1c(SCC(=O)c2ccc(F)cc2)nnc1-c1ccccc1N	-9.2%	-9%	1.7	-0.2	1	-17%
Cc1onc(-c2ccccc2Cl)c1C(=O)Oc1ccccc1F	-0.4%	x	x	-0.1	0	x
CCOC(=O)C1(CCCc2ccccc2)CCN(C(=O)[C@@H]2C[C@@H](C)NC(=S)N2)CC1	x	-9%	0.6	0.9	20	8%[15.4 µM]
COCC(C)NS(=O)(=O)c1ccc(C(=O)NCCCn2ccc3ccccc32)cc1 (configuration not stated)	-0.6%	-19%	0.6	1.2	4	-64%[inhibitor]
Cc1cc(OCCCCCNCCO)cc(C)c1Cl	1.8%	16%	-0.1	0.0	6	1%
N/C(=N\OC(=O)c1ccc(Br)o1)c1ccccn1	x	-6%	-2.1	0.4	0	12%[15.4 µM]
Cc1cc2c(NC(=O)Nc3ccc(F)cc3)cccc2nn1	x	-4%	-3.4	0.0	21	-10%
C/C(=N\NC(=O)c1ccc(OC2OCCOC2Oc2ccc(C(=O)N/N=C(\C)c3ccncc3)cc2)cc1)c1ccncc1 (configuration not stated)	0.8%	2%	13	-0.1	33	-4%
Cc1cccc(C(=O)NNC(=O)Nc2ccccc2)c1	x	2%	2.8	0.7	1	u
COCCn1cc(C(=O)NCc2cccs2)c2c3ccccc3n(C)c2c1=O	20µM*	-14%	0.3	0.0	13	2%
COc1ccc(CCN(C)C2CCCN(C(=O)Cn3cccn3)C2)cc1OC (configuration not stated)	-7.1%	9%	x	-0.5	-7	-42%
Cc1cccc(C(=O)Nc2ccccc2N2CCN(c3ccc(F)cc3)CC2)c1	-8.7%	27%	2.8	1.1	45	13%
Cc1ccc(S(=O)(=O)N2CC3(O)CN(C(=O)OC(C)C)N(C(=O)OC(C)C)CC3(OC(=O)NCc3ccccc3)C2)cc1 (configuration not stated)	-1.4%	x	x	0.1	0	-12%
O=C(Cc1c(F)cccc1Cl)Nc1cc(S(=O)(=O)N2CCOCC2)ccc1N1CCCC1	-1.2%	-8%	x	1.1	-6	u
CC1CCCC(NC(=O)COC(=O)/C=C/c2ccc(F)cc2)C1C (configuration not stated)	-0.4%	13%	x	-0.3	-4	u
N#Cc1ccncc1Sc1ccc(Cl)cc1	-0.5%	-1%	u	-1.0	-5	-8%[15.4 µM]
COc1ccc(N2CC(O)=C(c3nc(-c4ccc(Cl)cc4)cs3)C2=N)cc1	0.4%	-2%	10	-0.7	-2	5%
COc1cc(NC(=O)CCc2c(C)nn(-c3ccc(N4CCOCC4)nn3)c2C)cc(OC)c1OC	-0.7%&-1.5%	-19%	-3.7	-0.6&-0.8	-4&2	u
Cc1nc(Nc2ccccc2C)c2cnn(C)c2n1	-2.8%	-6%	x	-0.2	-6	19%[15.4 µM]
CCC(NCc1cccnc1)c1ccc(OC)c(OC)c1 (configuration not stated)	-2.5%	-5%	x	0.7	-11	-28%
COc1cccc(-c2ccccc2C2=CC(=O)CC(C)(C)C2=O)c1	1.6%	x	x	-0.2	8	5%
C#CCSc1[nH]c(=O)cc(C)c1C#N	x	1%	-0.1	2.6	-6	-14%[15.4 µM]
C#CC(C)(CC)NC(=O)c1cc2c(n(-c3ccc(Cl)cc3)c1=O)CC(C)(C)CC2=O (configuration not stated)	-25%	x	x	3.3	-7	x
O=C(CCN=C1NS(=O)(=O)c2ccccc21)N1CCc2ccccc2C1	x	-6%	6.3	0.7	44	13%[15.4 µM]
CCC(C)NC(=O)c1ccccc1-c1ccccc1C(=O)NC(C)CC (configuration not stated)	x	x	0.1	-0.8	-9	-7%[15.4 µM]
Cc1ccc(S(=O)(=O)Nc2ccc3c(c2)OCCO3)cc1	-2.0%	4%	-0.7	1.2	24	-3%[15.4 µM]
CCCCc1nc2cc(C(=O)NCCc3cnn(C)c3)ccc2o1	0.2%	-3%	1.2	-0.1	-26	-46%[inhibitor]
CC1(C(=O)Nc2cccc3cccnc23)CCN1C(=O)CCC1CCCC1 (configuration not stated)	-4.8%	x	x	-0.2	12	x
O=C(NNC(=S)NC1CCCCC1)c1sc2ccccc2c1Cl	17%	u	2.3	3.5	-29	22%
Cc1ccccc1Nc1nc(N)nc(CN2C(=O)NC3(CCCCC3C)C2=O)n1 (configuration not stated)	-0.9%	7%	3.3	1.0	16	-30%
Cc1cc(C)cc(CC(CC(=O)Nc2ccc(Cl)cc2)C(=O)O)c1 (configuration not stated)	-0.1%	-2%	0.3	1.1	25	6%
CCNC(=S)NNC(=O)c1cc(-c2cccc(OC)c2)nc2ccccc12	7.0%	5%	-10	0.8	-9	-35%[inhibitor]
CCC(C)C(Nc1ncnc2scc(-c3ccccc3)c12)C(=O)O (configuration not stated)	x	-1%	-3.1	0.4	6	-1%
CC1(C)CC(NC(=S)NCc2ccco2)CC(C)(C)N1	-2.1%	5%	-2.1	0.9	2	-79%[inhibitor]

Entries of single compounds from above:
`C#CC(C)(CC)NC(=O)c1cc2c(n(-c3ccc(Cl)cc3)c1=O)CC(C)(C)CC2=O` (configuration not stated) across the screens: ClpP mod = -25%; gsp antag = x; Menin-MLL FL inh = x; TRPML1 ag = 3.3; TRPML1 blocker = -7; gsp ag = x
`CC1(C)CC(NC(=S)NCc2ccco2)CC(C)(C)N1` across the screens: ClpP mod = -2.1%; gsp antag = 5%; Menin-MLL FL inh = -2.1; TRPML1 ag = 0.9; TRPML1 blocker = 2; gsp ag = -79%[inhibitor]

Remaining list, next part
SMILES	ClpP mod	gsp antag	Menin-MLL FL inh	TRPML1 ag	TRPML1 blocker	gsp ag
O=[N+]([O-])c1ccc(N2CCN(Cc3ccc4c(c3)OCO4)CC2)nc1	x	-3%	3.8	-0.5	-5	-34%[inhibitor]
O=C(O)CSc1ncnc2scc(-c3ccc(Br)cc3)c12	x	1%	u	0.6	24	8%[15.4 µM]
COC(=O)c1ccc(C(=S)N2CCOCC2)cc1	1.5%	-2%	-1.4	0.5	4	-8%
CNCCCCOc1ccccc1-c1ccccc1	-2.5%	-4%	x	-1.3	12	14%
Cc1ccc(NS(=O)(=O)c2ccc(NC(=O)c3ccc(Br)o3)cc2)c(C)c1	-6.0%	-8%	0.5	2.8	2	-22%
COc1ccccc1NC(=O)Cc1noc(CSc2cc(C)c3ccccc3n2)n1	-1.2%	-13%	9.2	0.4	-2	-1%
CC(Oc1ccc(Br)cc1)C(=O)Nc1cc(S(=O)(=O)N2CCOCC2)ccc1N1CCCC1 (configuration not stated)	x	-12%	x	0.1	4	-6%[15.4 µM]
O=C(Nc1cccc(O)c1)c1ccc(NC(=O)C2CCCO2)cc1 (configuration not stated)	x	-9%	-1.0	0.2	-6	22%
O=c1cc(-c2ccc([N+](=O)[O-])cc2)c2ccc(O)cc2o1	-3.8%	-10%	3.1	-0.2	-10	-6%[15.4 µM]
CS(=O)(=O)Nc1cccc(C2=NN(C(=O)c3ccccc3Cl)C(c3ccccc3O)C2)c1 (configuration not stated)	0.7%	-29%	5.0	1.8	1	-57%[inhibitor]
Cc1ccc(C(=O)CSc2nnc3n2CCCCC3)s1	0.8%	7%	x	1.1	9	-11%
